Env fusion inh – inhibitors of HIV Env-mediated cell fusion; HeLa-JRFL Env/CEM21 cell fusion, luciferase; inhibition, % at 12.3 µM; hit rate 1.1% among 360,000;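 active means mean replicate inhibition score of at least 50 and every replicate individually at or above 50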;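 further: 0% = plate neutral controls and 100% = maraviroc near 300 nM; one replicate is shown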
UUG fidelity – alters start codon recognition fidelity in yeast; S. cerevisiae UUG-firefly luciferase reporter, luminescence/redox ratio; activity score, % at 18.7 µM; hit rate 0.13% among 350,000;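 active means replicate mean at a twofold rise or more, about +100% in these data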;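 further: firefly luciferase made from a UUG start codon reports start codon fidelity; reporter light over untreated wells divided by growth signal over untreated wells; some hits fall short of that in this replicate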
* hit, by the source's call; [ ] = remark or other dose.

Env fusion inh,UUG fidelity,SMILES
2[16.7 µM],-8,C[C@H](CO)N1C[C@H](C)[C@H](CN(C)S(C)(=O)=O)Oc2ccc(NC(=O)CCN3CCOCC3)cc2CC1=O
-5[16.7 µM],-9,CCCNC(=O)N1C[C@H](O)COC[C@H]2O[C@H](CC(=O)N[C@@H]3CCN(Cc4ccccc4)C3)CC[C@@H]21
-15[16.7 µM],5,Cc1noc(C)c1S(=O)(=O)N(C)C[C@H]1Oc2c(NS(=O)(=O)c3ccc(F)cc3)cccc2C(=O)N([C@@H](C)CO)C[C@H]1C
12[16.7 µM],4,Cc1noc(C)c1NC(=O)Nc1ccc2c(c1)C(=O)N([C@@H](C)CO)C[C@@H](C)[C@H](CN(C)C(=O)Nc1ccc3c(c1)OCO3)OCCCC[C@H](C)O2
-5[16.7 µM],-12,O=C(C[C@@H]1C[C@H]2c3cc(NC(=O)CC4CC4)ccc3O[C@H]2[C@@H](CO)O1)NCc1cc(F)ccc1F
42[16.7 µM],14,Cc1noc(C)c1S(=O)(=O)Nc1cccc2c1O[C@H](CN(C)Cc1ccc(-c3ccccc3)cc1)[C@H](C)CN([C@H](C)CO)C2=O
108*[16.7 µM],-1,COc1ccc(S(=O)(=O)N(C)C[C@H]2Oc3c(NC(=O)Nc4ccc(C(F)(F)F)cc4)cccc3C(=O)N([C@@H](C)CO)C[C@H]2C)cc1
29[16.7 µM],8,C[C@H](CO)N1C[C@H](C)[C@H](CN(C)S(=O)(=O)c2cccc(F)c2)Oc2ncc(/C=C/c3ccccc3)cc2C1=O
-172[16.7 µM],-10,COc1ccc(NC(=O)Nc2cccc3c2O[C@H](CN(C)Cc2ccc(Cl)c(Cl)c2)[C@H](C)CN([C@H](C)CO)C3=O)cc1
-15[16.7 µM],-17,C[C@@H](NC(=O)C[C@H]1C[C@@H]2c3cc(NS(C)(=O)=O)ccc3O[C@@H]2[C@H](CO)O1)c1ccccc1

The results go on.
Env fusion inh,UUG fidelity,SMILES
-11[16.7 µM],7,C[C@@H]1CN([C@H](C)CO)C(=O)c2cc(C#CC3CCCCC3)cnc2O[C@@H]1CN(C)S(C)(=O)=O
-12[16.7 µM],4,C[C@@H]1CN([C@H](C)CO)C(=O)c2cc(-c3ccc(C#N)cc3)cnc2O[C@@H]1CN(C)C(=O)CC1CC1
15[16.7 µM],-19,C[C@H](CO)N1C[C@H](C)[C@@H](CN(C)S(=O)(=O)c2cccs2)Oc2ccc(NC(=O)Nc3ccc4c(c3)OCO4)cc2CC1=O
0[16.7 µM],-12,CCCc1cn(CC[C@@H]2CC[C@H](NC(=O)Cc3cccnc3)[C@@H](CO)O2)nn1
-7[16.7 µM],25,Cc1noc(C)c1S(=O)(=O)Nc1ccc2c(c1)C(=O)N([C@H](C)CO)C[C@@H](C)[C@@H](CN(C)Cc1ccc(Cl)c(Cl)c1)OCCCC[C@H](C)O2
-7[16.7 µM],-5,CC(C)NC(=O)Nc1ccc2c(c1)CC(=O)N([C@@H](C)CO)C[C@H](C)[C@H](CN(C)S(=O)(=O)c1cn(C)cn1)O2
-14[16.7 µM],1,COCC(=O)N(C)C[C@@H]1Oc2cc(-c3ccc(C#N)cc3)ccc2S(=O)(=O)N([C@@H](C)CO)C[C@H]1C
-34[16.7 µM],-8,Cc1ccc(S(=O)(=O)N(C)C[C@H]2OCCCC[C@@H](C)Oc3ccc(NC(=O)CCC(F)(F)F)cc3C(=O)N([C@@H](C)CO)C[C@H]2C)cc1
-1[16.7 µM],7,C[C@H]1CN([C@@H](C)CO)S(=O)(=O)c2ccc(C#CC3CC3)cc2O[C@H]1CN(C)S(C)(=O)=O
-89[16.7 µM],2,Cc1ccc(S(=O)(=O)Nc2ccc3c(c2)C(=O)N([C@H](C)CO)C[C@H](C)[C@@H](CN(C)C(=O)Nc2ccc(F)cc2)OCCCC[C@H](C)O3)cc1

Gathered by group: the entries above containing two or more sulfur atoms.
Env fusion inh,UUG fidelity,SMILES
-15[16.7 µM],5,Cc1noc(C)c1S(=O)(=O)N(C)C[C@H]1Oc2c(NS(=O)(=O)c3ccc(F)cc3)cccc2C(=O)N([C@@H](C)CO)C[C@H]1C
15[16.7 µM],-19,C[C@H](CO)N1C[C@H](C)[C@@H](CN(C)S(=O)(=O)c2cccs2)Oc2ccc(NC(=O)Nc3ccc4c(c3)OCO4)cc2CC1=O
-1[16.7 µM],7,C[C@H]1CN([C@@H](C)CO)S(=O)(=O)c2ccc(C#CC3CC3)cc2O[C@H]1CN(C)S(C)(=O)=O

Retrieved by compound from above (two):
Env fusion inh,UUG fidelity,SMILES
-14[16.7 µM],1,COCC(=O)N(C)C[C@@H]1Oc2cc(-c3ccc(C#N)cc3)ccc2S(=O)(=O)N([C@@H](C)CO)C[C@H]1C
-7[16.7 µM],25,Cc1noc(C)c1S(=O)(=O)Nc1ccc2c(c1)C(=O)N([C@H](C)CO)C[C@@H](C)[C@@H](CN(C)Cc1ccc(Cl)c(Cl)c1)OCCCC[C@H](C)O2

Additional structures follow:
Env fusion inh,UUG fidelity,SMILES
-8[16.7 µM],10,CCCN(C)C[C@@H]1Oc2cc(C#CC3(O)CCCC3)ccc2S(=O)(=O)N([C@H](C)CO)C[C@@H]1C
13[16.7 µM],-3,C[C@H]1CN([C@@H](C)CO)C(=O)Cc2cc(NC(=O)Nc3ccc4c(c3)OCO4)ccc2O[C@H]1CN(C)C(=O)Nc1cccc2ccccc12
-14[16.7 µM],-3,C[C@H]1CN([C@@H](C)CO)C(=O)c2cc(C#Cc3ccccn3)cnc2O[C@H]1CN(C)C(=O)c1ccccn1
26[16.7 µM],-11,CS(=O)(=O)Nc1ccc2c(c1)[C@@H]1C[C@H](CC(=O)NCc3cccnc3)O[C@@H](CO)[C@@H]1O2
-14[16.7 µM],8,C[C@@H]1CN([C@H](C)CO)C(=O)c2cc(-c3ccc(C#N)cc3)cnc2O[C@H]1CN(C)CC1CCOCC1
-33[16.7 µM],5,C[C@@H]1CN([C@@H](C)CO)C(=O)Cc2cc(NC(=O)CCC(F)(F)F)ccc2O[C@@H]1CN(C)Cc1ccc(-c2ccccc2)cc1
-3[16.7 µM],7,C[C@@H]1CN([C@@H](C)CO)C(=O)c2cccc(NC(=O)c3ccncc3)c2O[C@@H]1CN(C)C(=O)Nc1cccc2ccccc12
-1[16.7 µM],-9,C[C@@H]1CN([C@H](C)CO)C(=O)Cc2cc(NC(=O)CCCCCC(=O)Nc3ccccc3N)ccc2O[C@@H]1CN(C)Cc1ccncc1
-5[16.7 µM],9,C[C@@H]1CN([C@@H](C)CO)C(=O)c2cc(NC(=O)Nc3ccc(F)cc3)ccc2O[C@@H](C)CCCCO[C@@H]1CN(C)Cc1ccncc1
-8[16.7 µM],21,Cc1noc(C)c1NC(=O)Nc1ccc2c(c1)C(=O)N([C@@H](C)CO)C[C@H](C)[C@@H](CN(C)S(=O)(=O)c1c(C)noc1C)OCCCC[C@@H](C)O2

Remaining list, next part.
Env fusion inh,UUG fidelity,SMILES
12[16.7 µM],-2,C[C@@H]1CCCCO[C@@H](CN(C)S(=O)(=O)c2cccs2)[C@@H](C)CN([C@@H](C)CO)C(=O)c2cc(NC(=O)Nc3ccc(F)cc3)ccc2O1
3[16.7 µM],17,C/C=C/c1cnc2c(c1)C(=O)N([C@H](C)CO)C[C@H](C)[C@@H](CN(C)S(=O)(=O)c1ccc(C)cc1)O2
4[16.7 µM],-13,CCCNC(=O)N(C)C[C@@H]1Oc2ncc(C#Cc3ccncc3)cc2C(=O)N([C@@H](C)CO)C[C@H]1C
11[16.7 µM],-6,CC(C)NC(=O)Nc1ccc2c(c1)CC(=O)N([C@H](C)CO)C[C@@H](C)[C@H](CN(C)S(C)(=O)=O)O2
17[16.7 µM],-6,CCCNC(=O)N(C)C[C@H]1Oc2ncc(C#CCc3ccccc3)cc2C(=O)N([C@@H](C)CO)C[C@@H]1C
-17[16.7 µM],4,O=C(C[C@@H]1CC[C@@H]2[C@H](COC[C@H](O)CN2C(=O)Nc2ccc(Cl)c(Cl)c2)O1)NC1CCC1
20[16.7 µM],3,O=C(C[C@H]1CC[C@H]2[C@@H](COC[C@@H](O)CN2S(=O)(=O)c2cccc(Cl)c2)O1)NC1Cc2ccccc2C1
-32[16.7 µM],-14,Cc1noc(C)c1S(=O)(=O)Nc1ccc2c(c1)C(=O)N([C@H](C)CO)C[C@H](C)[C@@H](CN(C)C(=O)C1CCCCC1)OCCCC[C@H](C)O2
-19[16.7 µM],-4,CS(=O)(=O)Nc1ccc2c(c1)[C@@H]1C[C@H](CC(=O)NCc3ccccc3)O[C@H](CO)[C@@H]1O2
7[16.7 µM],5,CC(C)C(=O)Nc1ccc2c(c1)C(=O)N(C)[C@@H]1CC[C@H](CC(=O)NCc3ccccc3F)O[C@H]1CO2

The listing continues:
Env fusion inh,UUG fidelity,SMILES
12[16.7 µM],-10,C[C@@H]1CN([C@H](C)CO)C(=O)Cc2cc(NC(=O)c3ccncc3)ccc2O[C@@H]1CN(C)C(=O)Nc1cccc2ccccc12
-14[16.7 µM],15,C[C@@H]1CCCCO[C@@H](CN(C)S(=O)(=O)c2ccccc2)[C@@H](C)CN([C@@H](C)CO)C(=O)c2cc(NC(=O)CCC(F)(F)F)ccc2O1
-19[16.7 µM],-24,C[C@@H]1CN([C@H](C)CO)C(=O)c2cc(NS(C)(=O)=O)ccc2O[C@@H]1CN(C)Cc1ccccc1
-7[16.7 µM],39,COc1ccccc1-c1ccc([C@H]2[C@H](C#N)N(C(=O)C3CC3)[C@H]2CO)cc1
16[16.7 µM],-1,C[C@@H]1CCCCO[C@H](CN(C)Cc2ccccc2)[C@@H](C)CN([C@H](C)CO)C(=O)c2cc(NS(=O)(=O)c3cn(C)cn3)ccc2O1
-5[16.7 µM],-4,Cc1noc(C)c1NC(=O)N(C)C[C@@H]1Oc2ccc(NS(=O)(=O)c3ccc(Cl)cc3)cc2C(=O)N([C@H](C)CO)C[C@@H]1C
7[16.7 µM],-10,C[C@@H]1CN([C@@H](C)CO)C(=O)c2cccc(NC(=O)NC3CCCCC3)c2O[C@@H]1CN(C)C(=O)Nc1cccc2ccccc12
-39[16.7 µM],-6,C[C@@H]1CN([C@@H](C)CO)C(=O)Cc2cc(NS(=O)(=O)c3cn(C)cn3)ccc2O[C@@H]1CN(C)Cc1ccccc1
5[16.7 µM],10,Cc1ccc(S(=O)(=O)N(C)C[C@@H]2Oc3c(NC(=O)c4cnccn4)cccc3C(=O)N([C@@H](C)CO)C[C@H]2C)cc1
35[16.7 µM],5,O=C(N[C@H]1CC[C@H](CCNS(=O)(=O)c2ccc(Cl)cc2)O[C@@H]1CO)c1cnccn1

Remaining list, next part:
Env fusion inh,UUG fidelity,SMILES
1[16.7 µM],4,O=C(CN1CCOCC1)N[C@H]1CC[C@@H](CCNC(=O)Nc2cc(F)ccc2F)O[C@@H]1CO
1[16.7 µM],4,C[C@H](CO)N1C[C@H](C)[C@@H](CN(C)C(=O)NC2CCCCC2)Oc2ccc(NC(=O)Nc3cccc4ccccc34)cc2C1=O
3[16.7 µM],-5,C[C@H](CO)N1C[C@H](C)[C@@H](CN(C)C(=O)Cc2ccncc2)Oc2cc(C#CC3CCCCC3)ccc2S1(=O)=O
11[16.7 µM],61,C[C@H](CO)N1C[C@H](C)[C@@H](CN(C)C)Oc2cc(C#CC3CCCC3)ccc2S1(=O)=O
-9[16.7 µM],-10,O=C(C[C@H]1C=C[C@H](NC(=O)NC2CCCCC2)[C@H](CO)O1)NCc1ccccc1
-30[16.7 µM],-9,CC(C)NC(=O)N(C)C[C@H]1Oc2cc(-c3cncnc3)ccc2S(=O)(=O)N([C@@H](C)CO)C[C@H]1C
13[16.7 µM],-13,C[C@@H]1CN([C@H](C)CO)C(=O)c2cccc(NC(=O)C3CC3)c2O[C@H]1CN(C)S(=O)(=O)c1cn(C)cn1
3[16.7 µM],10,CC(C)c1cn(CC[C@H]2CC[C@@H](NC(=O)C3CCC3)[C@H](CO)O2)nn1
3[16.7 µM],7,C[C@H](CO)N1C[C@H](C)[C@H](CN(C)C(=O)C2CC2)Oc2cc(C#CCN(C)C)ccc2S1(=O)=O
-2[16.7 µM],23,CNC[C@@H]1OCCCC[C@H](C)Oc2ccc(NS(=O)(=O)c3ccc(OC)cc3)cc2C(=O)N([C@@H](C)CO)C[C@@H]1C

(next part)
Env fusion inh,UUG fidelity,SMILES
1[16.7 µM],2,C[C@@H]1CN([C@@H](C)CO)C(=O)c2cc(NC(=O)Cn3cnnn3)ccc2O[C@H]1CN(C)Cc1ccc(Cl)c(Cl)c1
21[16.7 µM],6,CCCN(C)C[C@@H]1Oc2cc(C#CC3CCCCC3)ccc2S(=O)(=O)N([C@@H](C)CO)C[C@H]1C
-19[16.7 µM],24,O=C(C[C@H]1CC[C@@H](NC(=O)C2CCC2)[C@H](CO)O1)NC1CCCCC1
9[16.7 µM],6,C[C@H]1CN([C@@H](C)CO)C(=O)Cc2cc(NC(=O)NC3CCCCC3)ccc2O[C@@H]1CN(C)Cc1ccc(Cl)c(Cl)c1
1[16.7 µM],-9,Cc1ccc(S(=O)(=O)N(C)C[C@@H]2Oc3c(NC(=O)Nc4c(C)noc4C)cccc3C(=O)N([C@H](C)CO)C[C@H]2C)cc1
18[16.7 µM],1,CC(C)NC(=O)N(C)C[C@@H]1Oc2ccc(NC(=O)C3CCCCC3)cc2CC(=O)N([C@H](C)CO)C[C@H]1C
3[16.7 µM],-9,C[C@H]1CN([C@@H](C)CO)C(=O)Cc2cc(NC(=O)Cn3cnnn3)ccc2O[C@@H]1CN(C)CC1CC1
28[16.7 µM],19,COc1ccccc1NC(=O)N[C@H]1C=C[C@@H](CC(=O)N2CCC(Cc3ccccc3)CC2)O[C@@H]1CO
2[16.7 µM],-11,C[C@@H]1CN([C@@H](C)CO)C(=O)Cc2cc(NC(=O)Nc3ccc4c(c3)OCO4)ccc2O[C@@H]1CN(C)S(C)(=O)=O

In a second layout: entries from further up.
compound	Env fusion inh	UUG fidelity
COc1ccccc1NC(=O)N[C@H]1C=C[C@@H](CC(=O)N2CCC(Cc3ccccc3)CC2)O[C@@H]1CO	28[16.7 µM]	19
C[C@@H]1CN([C@@H](C)CO)C(=O)Cc2cc(NC(=O)Nc3ccc4c(c3)OCO4)ccc2O[C@@H]1CN(C)S(C)(=O)=O	2[16.7 µM]	-11

Screening results (PubChem)

An excerpt; count on the stated rates, not on these rows.
